# PABP FP inh: blocks human PABP binding to poly(A) RNA | 1% of 290,000 active | fluorescence polarization | inhibition, % at 35 µM | AID 2014;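 active = 50% or more with normal probe brightness, or confirmed in later tests; inconclusive = above 50% with abnormal brightness, or retests that disagree; inactive = below 50% or failed in later tests; about a fifth of its hits are not listed in these tables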;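 note: calls also rest on retests at 20 µM and on dose response follow-up; controls were probe without protein and protein plus probe with vehicle; some compounds called inactive have numbers as strong as hits; many hits fall short of the cut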
# Target sequence (P11940 whole entry, looked up): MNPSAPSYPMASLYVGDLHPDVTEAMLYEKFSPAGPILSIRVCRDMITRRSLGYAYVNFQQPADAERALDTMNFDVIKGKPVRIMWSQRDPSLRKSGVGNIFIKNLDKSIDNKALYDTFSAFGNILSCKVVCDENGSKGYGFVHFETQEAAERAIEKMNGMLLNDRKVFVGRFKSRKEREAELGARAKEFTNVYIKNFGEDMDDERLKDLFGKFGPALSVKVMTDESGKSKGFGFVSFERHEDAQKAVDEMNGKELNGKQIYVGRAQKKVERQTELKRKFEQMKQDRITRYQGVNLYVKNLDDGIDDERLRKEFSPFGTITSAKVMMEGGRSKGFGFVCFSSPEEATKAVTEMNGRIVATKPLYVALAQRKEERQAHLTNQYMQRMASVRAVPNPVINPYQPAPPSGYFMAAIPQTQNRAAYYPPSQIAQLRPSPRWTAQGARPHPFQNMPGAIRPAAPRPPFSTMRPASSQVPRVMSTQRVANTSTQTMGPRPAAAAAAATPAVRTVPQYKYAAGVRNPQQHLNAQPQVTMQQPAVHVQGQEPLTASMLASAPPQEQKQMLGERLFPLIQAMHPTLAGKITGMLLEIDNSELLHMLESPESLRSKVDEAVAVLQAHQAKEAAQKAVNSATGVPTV
# Env fusion inh: blocks HIV Env-driven cell-cell fusion; HeLa-JRFL Env/CEM21 cell fusion, luciferase; inhibition, % at 12.3 µM; 1.1% of 360,000 active; AID 651610;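 active = mean replicate inhibition score of at least 50 and every replicate individually at or above 50; inconclusive = only one of the two criteria met; inactive = mean below 50 and not all replicates reaching 50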;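 note: 0% = plate neutral controls and 100% = maraviroc near 300 nM; one replicate is shown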
# Yeast UUG start: yeast start codon fidelity modulation. activity score, % at 18.7 µM. S. cerevisiae UUG-firefly luciferase reporter, luminescence/redox ratio. 0.13% of 350,000 active. AID 602363;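 active = replicate mean at a twofold rise or more, about +100% in these data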;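 note: firefly luciferase made from a UUG start codon reports start codon fidelity; reporter light over untreated wells divided by growth signal over untreated wells; some hits fall short of that in this replicate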
# eIF4H FP inh: inhibitors of RNA binding by human eIF4H | Q15056 | eIF4H fluorescence polarization binding assay | inhibition, % at 35 µM | 0.94% of 290,000 active;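 active = 50% or more with normal probe brightness, or confirmed in later tests; inconclusive = above 50% with abnormal brightness, or retests that disagree; inactive = below 50% or failed in later tests; about a fifth of its hits are not listed in these tables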;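 note: calls also rest on retests at 20 µM and on dose response follow-up; 0% = protein and probe with vehicle and 100% = probe without protein; strong numbers were not always called active; many hits fall short of the cut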
# CSC inhib: blocks cancer stem cells | inhibition, % at 7.5 µM | AID 2717 | cancer stem cell-like cells viability, luminescence | 1.1% of 300,000 active;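 active = mean at 75% or more and at least half the replicates too; inconclusive = mean and replicates disagree; tested in HMLE shEcad cells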;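 note: 0% = median of negative and 100% = median of positive control wells; the first replicate is given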
# MT1-MMP act inh: blocks activation of human MT1-MMP. HT1080 RFP-PRO-GFP cells, GFP/RFP ratio fluorescence, overnight; percent of plate control window, DMSO zero. GFP/RFP ratio change, % at 20 µM. 0.061% of 360,000 active. AID 651647;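 active = GFP/RFP ratio change of at least 30% with cell ATP level not reduced by more than half and red fluorescence within 50% of control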; note: strong numbers were not always called active
#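 Compound: 20 µM single dose, 1% DMSO / System: HT1080 RFP-PRO-GFP cells / Controls: DMSO and RFP-L50D-GFP cell wells / Read-out basis: GFP/RFP fluorescence ratio / Schedule: overnight compound exposure at 37 °C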
# Rce1 inhib: blocks yeast Ras-converting enzyme. calls only. AID 2563. yeast membranes, quenched prenylated peptide cleavage fluorescence. Q03530. 0.27% of 290,000 active;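 active = fall in fluorescence gain of 50% or more versus controls, with final raw signal at or below 3038400; inconclusive = same 50% fall but final raw signal above 3038400; inactive = fall in fluorescence gain under 50%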;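 note: plate controls were neutral control wells for no effect and wells lacking membranes for full effect; tested at 10 µM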
# Target sequence (Q03530 whole entry, looked up): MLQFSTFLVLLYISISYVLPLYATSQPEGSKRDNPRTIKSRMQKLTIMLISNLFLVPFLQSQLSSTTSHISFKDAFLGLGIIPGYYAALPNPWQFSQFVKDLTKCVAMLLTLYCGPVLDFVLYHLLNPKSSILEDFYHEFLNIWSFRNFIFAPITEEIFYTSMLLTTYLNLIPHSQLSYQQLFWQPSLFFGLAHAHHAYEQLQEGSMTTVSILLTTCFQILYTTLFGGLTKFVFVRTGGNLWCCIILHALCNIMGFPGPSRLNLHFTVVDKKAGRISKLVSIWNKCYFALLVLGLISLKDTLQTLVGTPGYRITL
# eIF4H FP inh retest: also measured in eIF4H FP inh; calls as there; inhibition, %; compound at 20 µM; confirmation average;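 mean of two retest wells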
# PABP FP inh retest: also measured in PABP FP inh; calls as there; inhibition, %; compound at 20 µM; confirmation repeats;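 mean of two retest wells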
# MT1-MMP act inh RFP: second read-out of MT1-MMP act inh, no call of its own (marks repeat the call); RFP signal change, %; measured here: RFP expression control read;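 0 = vehicle wells; hits needed this value within 50% of zero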
# The depositor's hits bear a star; i = inactive; ? = inconclusive; · = no result given.
SMILES,PABP FP inh,Env fusion inh,Yeast UUG start,eIF4H FP inh,CSC inhib,MT1-MMP act inh,MT1-MMP act inh RFP,Rce1 inhib,others
O=C(C1CCCN(S(=O)(=O)c2ccccc2)C1)N1CCCCCC1 (stereo not given),6.3,-9.5,·,-2.9,-11.0,0.2,-4.2,i,
COc1ccc(N(CC(=O)Nc2ccc3c(c2)OCO3)S(=O)(=O)c2ccc(F)cc2)cc1,-6.1,-19.8,·,23.6,6.4,1.5,-1.4,i,
O=C(c1ccco1)N1CCN(C(=O)N2CCCC2)CC1,-0.1,8.7,-23.1,-2.5,-6.2,0.3,1.7,i,
C=CCOc1ccc(C2C(C(=O)c3ccco3)=C(O)C(=O)N2c2nnc(C)s2)cc1 (stereo not given),90.5,6.6,-8.6,96.3,·,-14.2,2.7,i,eIF4H FP inh retest=-0.2;PABP FP inh retest=12.6
CCOc1ccc(C(CCc2ccccc2)NC(=O)c2ccc(OC)c(OC)c2)cc1OCC (stereo not given),-0.5,29.7,-18.3,-0.4,1.5,-2.2,-9.8,i,
CS/C(N)=N/N=C/c1cc(Br)cc(Br)c1O,7.2,-0.8,-21.3,-4.4,7.0,-1.3,0.9,i,
O=C(Cc1ccc(F)cc1)OCN1C(=O)c2ccccc2C1=O,12.6,7.8,-3.4,1.3,-14.1,3.6,3.1,i,
CCN(CC(=O)Nc1ccc(N2CCOCC2)cc1)CC(=O)NC(C)(C)C,?,10.5,·,-0.8,-4.3,1.8,4.3,i,
COc1ccc(/C=N/NC(=O)CCc2c(C)n[nH]c2C)cc1OC,-3.7,-47.5,·,1.9,-6.5,-0.6,1.6,i,
Cc1ccc(NC(=O)CN(C)C(=O)COC(=O)CNS(=O)(=O)c2ccc(Br)cc2Cl)cc1,-10.8,4.5,9.4,-7.6,1.2,3.7,5.3,i,
O=C(CN1CCCCC1)Nc1cccc([N+](=O)[O-])c1,-2.0,·,-13.4,0.9,-2.9,3.7,0.3,i,
O=C(NC1(C(F)(F)F)NC(=O)N(Cc2ccco2)C1=O)c1cccnc1 (stereo not given),6.9,·,-27.0,6.9,-3.0,-7.2,-4.5,i,
COc1ccccc1OCCC(=O)OCC(=O)c1c(N)n(C)c(=O)n(C)c1=O,-4.9,-7.0,-3.5,-2.7,-3.2,2.1,2.0,i,
CCc1cc(C(=O)Nc2nnc(C3CC3)s2)sc1C,·,·,-9.1,·,-10.9,0.1,-1.3,·,
CCCc1cc2c(cc1NC(=O)c1ccc(C(C)(C)C)cc1)OCO2,-5.7,·,-4.0,2.5,·,-4.6,-1.3,i,
COc1ccc(C(=NNc2ccccc2C(=O)O)c2ccc(OC)cc2)cc1,7.3,13.1,-8.7,29.3,30.3,-0.4,-0.5,i,
COc1ccc(OC)c(NC(=O)NNC(=O)COc2ccc(-c3ccccc3)cc2)c1,-2.3,·,-11.2,-8.6,?,1.9,-1.4,i,
CC1S/C(=N\N=C\c2cccc([N+](=O)[O-])c2)N(C(C)(C)C)C1=O (stereo not given),1.0,3.4,·,-9.7,80.6*,-6.0,-10.3,i,
CN(C)c1ccc(C=NCCC2(c3ccccc3)CCOC(C)(C)C2)cc1 (stereo not given),4.3,1.9,1.4,-5.6,·,-7.1,-3.5,i,
CCOc1ccc(CCNC(=O)Cn2ncn3nc(-c4ccc(OC)cc4)cc3c2=O)cc1OCC,6.9,-2.6,-0.2,-6.0,-5.6,1.3,3.2,i,
O=C(Nc1ccccc1)N1CCN(C(=O)Nc2ccccc2)CC1,-7.1,·,·,-9.2,-9.2,·,·,i,
Cc1[nH]c(=O)[nH]c(=O)c1S(=O)(=O)N1CCCC(C(=O)NCCc2ccc(Cl)cc2)C1 (stereo not given),3.0,·,-13.1,1.9,-6.5,1.0,2.6,i,
COc1cccc(C(=O)Oc2cc(-c3ccccc3)no2)c1,-9.5,·,-3.2,0.1,-9.0,-0.4,2.6,i,
Cc1ccc(S(=O)(=O)NC(CC(=O)NC2CCCC2)c2ccco2)cc1 (stereo not given),-9.4,·,-9.8,-5.3,-6.6,1.0,0.3,i,
COc1ccc(C(=O)NC2CCN(C(=S)Nc3cc(C)cc(C)c3)CC2)cc1,-13.7,-121.2,·,0.7,-22.9,0.7,5.1,i,
Cc1cccc(N(CC(=O)Nc2ccc(-c3nc4ccc(C)cc4s3)cc2)S(C)(=O)=O)c1,-0.6,·,-16.0,-9.4,1.0,0.7,-0.7,i,
c1ccc2oc(SCc3cn4ccsc4n3)nc2c1,8.2,-172.9,-29.4,-5.7,-9.1,0.7,-0.5,i,
O=c1/c(=C/c2ccccc2)sc2nnc(-c3cccs3)n12,9.1,-2.2,-9.9,-4.9,7.0,2.2,2.1,i,
CCC(C)[C@H](NC(=O)OC(C)(C)C)C(=O)NCC1CCC(C(=O)N[C@@H](Cc2ccccc2)C(=O)O)CC1 (stereo not given in full),0.3,-18.6,-16.0,-4.7,-3.2,2.4,3.7,i,
CCOc1ccc(C(=O)/C=C/Nc2ccc(S(=O)(=O)N=C(N)N)cc2)cc1,6.9,-21.3,·,2.5,19.8,5.1,4.8,i,
CCCN(CC(=O)Nc1ccccc1OC)C(=O)c1ccc(=O)[nH]c1,-5.9,-7.0,-4.8,-6.5,-7.7,-0.8,5.6,i,
CC(C)=C1C2CCC1C1C(=O)N(NC(=O)COc3ccc(Cl)c(C)c3)C(=O)C21 (stereo not given),3.5,23.0,-1.0,-3.0,-3.4,-0.4,-5.2,i,
CC(c1ccccc1C(=O)O)c1cc(F)cc2ccccc12 (stereo not given),·,-7.8,-1.9,·,·,1.8,2.9,·,
CC(CCc1ccccc1)NC(=O)COc1cc(F)ccc1[N+](=O)[O-] (stereo not given),?,-11.4,-7.0,3.6,-18.1,2.6,0.8,i,
COc1ccccc1CCn1cnc2c3cc(C)ccc3n(C)c2c1=O,-6.1,-81.2,-15.8,-0.2,44.7,2.5,0.5,i,
COc1ccc(NC(=O)CSc2sc3c(O)cc(=O)[nH]c3c2C#N)c(OC)c1,15.1,18.0,-13.1,46.5,-5.5,3.0,9.5,·,
Cc1ccc(C)c(C(=O)Cn2ncc(Cl)c(Cl)c2=O)c1,11.0,·,·,-1.6,56.4,-2.9,-1.2,i,
COc1cccc(OC)c1OCCN1CCC(C(=O)NC(c2ccc3c(c2)OCO3)c2ccccn2)CC1 (stereo not given),·,-15.7,-15.2,·,·,2.8,-0.5,·,
CC[C@]12c3[nH]c4ccc(Cl)cc4c3CCN1C(=O)[C@@H](CC(=O)NCCc1ccccn1)C[C@@H]2C(=O)N1CCN(C(=O)c2ccco2)CC1,·,-11.0,-2.9,·,·,-0.5,3.6,·,
CCNC(=O)N(C)C[C@H]1N[C@@](Cc2ccccc2)(C(=O)OC)[C@H]2C(=O)N(C)C(=O)[C@@H]12,·,-2.2,-14.9,·,·,3.5,5.2,·,
C=CCn1c(N)c(C(=O)NCC2CCCO2)sc1=S (stereo not given),7.7,15.9,-8.3,1.0,-10.0,0.6,2.6,·,
CCOC(=O)[C@H]1[C@H]2COc3ccc(C)cc3[C@@H]2N2C(=O)[C@@H](CO)NC(=O)[C@@]12C,·,-10.8,2.6,·,-13.1,-2.1,2.9,·,
CC(C(=O)N1CCCC1)N1CCN(S(=O)(=O)c2ccc(C(C)(C)C)cc2)CC1 (stereo not given),·,·,-12.2,·,3.4,-2.0,-6.3,·,
Cc1nn(CC#N)c(=O)n1-c1ccc(C(C)C)cc1,14.2,13.3,-42.1,4.3,-13.1,5.4,5.6,i,
CCCC(=O)NCCCc1nc2ccccc2n1CC,3.5,-4.3,-24.5,0.3,-13.0,-0.8,5.8,i,
CCN(CC)S(=O)(=O)c1ccc(N2CCCCC2)c(NC(=O)c2ccncc2)c1,-1.7,12.9,6.5,-9.8,-3.6,-1.8,-1.9,i,
CCOC(=O)N1CCC(NS(=O)(=O)c2ccc(C#N)cc2)CC1,-6.5,0.5,-23.0,1.6,-10.9,0.1,-1.6,i,
CCCc1nc2c(C)cc(Br)cn2c1Cc1ccc(C)cc1,·,-43.4,2.6,·,·,-1.9,3.8,·,
Cc1ccc(-c2nnn(CC(=O)Nc3cccc4c3CCCC4)n2)o1,10.8,-121.2,-14.1,0.2,·,-2.0,-0.1,i,
CCc1ccc(NC(=O)NCCN2CCN(c3ccc(OC)cc3)CC2)cc1,-12.2,-0.7,-6.0,-6.0,-4.2,-0.8,-1.7,i,
Cn1ccsc1=NC(=O)c1ccc(OC(F)(F)F)cc1,0.3,-17.8,-2.4,1.5,-7.9,-4.1,-2.7,i,
COc1ccc(C)cc1N(CC(=O)NC1CCCC1)C(=O)CCC(=O)Nc1nc(C)cs1,3.9,3.6,-13.5,-21.9,-6.7,2.7,3.8,i,
S=C(NCc1ccc(Cl)cc1)NC1CCCCC1,-5.5,8.9,·,-2.0,1.2,4.4,0.8,i,
Oc1ccc(-c2nncn2-c2ccccc2)cc1,-1.0,8.6,·,4.7,-21.5,2.4,-0.9,i,
Nc1ccc(C(=O)OCC(=O)N2CCN(C(=O)c3ccco3)CC2)cc1[N+](=O)[O-],3.9,·,-8.6,-4.6,-9.5,3.3,3.2,i,
CN(C)c1nc(-c2ccccc2)nnc1C(F)(F)F,-8.2,·,-10.8,-7.7,-12.9,-2.9,-1.4,i,
CC(CCC(=O)Nc1nncs1)C(=O)O (stereo not given),-6.0,18.2,3.2,1.4,0.1,2.4,4.8,i,
CCc1nnc(NC(=O)CSC(=S)N2CCOCC2)s1,1.7,14.6,-3.7,-11.6,-4.8,1.5,5.2,i,
O=C(CCN1C(=O)C2C3CCC(C3)C2C1=O)Nc1ccc(Br)cc1 (stereo not given),42.7,-28.4,-3.6,-1.2,-8.2,-0.6,-1.7,i,
Cc1nnc(SC(C)C(=O)N(C)C2CCCCC2)n1N (stereo not given),·,22.3,2.6,·,·,0.1,5.9,·,
O=C(Nc1ccc(Nc2ccncc2)cc1)c1ccc(Nc2ccnc3ccc([N+](=O)[O-])cc23)cc1,11.9,12.4,-4.3,-3.1,·,6.7,-0.6,i,
